Screens (PubChem)
VDR inhibitor – Inhibitors of the vitamin D receptor (VDR): qHTS; Vitamin D3 receptor (Homo sapiens), P11473; 400,000 tested, 0.93% active; AID 504847, 2011; VDR-SRC2-3 peptide fluorescence polarization, 2 h; Potency, µM, inactives show max response, negative = inhibition, most hits filed as inhibitors; active means well fitted inhibition curve with a large enough effect; inconclusive means small, poorly fitted or top-dose-only effect, or another doubt; inactive means no such curve, though single readings can be large or run the other way; further: series mostly up to about 120 µM
Target sequence (P11473 whole entry, looked up): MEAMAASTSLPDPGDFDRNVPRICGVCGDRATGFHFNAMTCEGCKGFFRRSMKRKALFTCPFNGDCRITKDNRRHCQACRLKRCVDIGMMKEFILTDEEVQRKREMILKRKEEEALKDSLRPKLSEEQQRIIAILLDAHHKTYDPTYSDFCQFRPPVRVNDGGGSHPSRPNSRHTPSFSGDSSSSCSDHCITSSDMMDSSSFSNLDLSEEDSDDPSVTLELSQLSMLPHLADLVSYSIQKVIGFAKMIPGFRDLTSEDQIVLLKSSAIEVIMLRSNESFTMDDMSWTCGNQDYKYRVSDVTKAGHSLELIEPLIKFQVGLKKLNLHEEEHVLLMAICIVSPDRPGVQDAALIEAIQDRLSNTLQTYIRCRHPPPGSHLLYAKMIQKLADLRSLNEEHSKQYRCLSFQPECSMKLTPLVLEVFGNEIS
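Measured by FP: displacement of SRC2-3 coactivator peptide from VDR by library compounds, following a two-hour ambient incubation.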
Active calls of the source: *; & = joins results of further samples. On the % scale 0 is the no-effect control and ±100 the full control effect; potency means the concentration at half of the fitted maximal effect.

Results for Cc1ccc(Cn2cnc3nc4c(cc3c2=O)CC(C)CC4)cc1 (centres undefined) ?
VDR inhibitor: 9%

What do the screens show for `Cc1ccc(N(CC(=O)Nc2cc(C)cc(C)c2)S(=O)(=O)c2cccc3nonc23)cc1`?
VDR inhibitor: -8%&2%

How did Cc1nn(C(=O)COc2ccc(Cl)cc2)c(C)c1Sc1ccccc1 do in these assays?
VDR inhibitor: 17%

What do the screens show for `COc1cc(OC)cc(-c2nc(-c3cccc(C)c3)no2)c1`?
VDR inhibitor: -15%

Results for COc1ccc(C2=Nn3c(nnc3-c3ccco3)SC2)cc1 ?
VDR inhibitor: -4%

What do the screens show for `CCc1ccc(/C=C2\CN(CC)Cc3c2nc2ccccc2c3C(=O)O)cc1`?
VDR inhibitor: -11%

What do the screens show for `Cc1ccccc1N1CC(C(=O)Nc2ccc(S(=O)(=O)N3CCCC3)cc2)CC1=O` (centres undefined)?
VDR inhibitor: -16%

Results for O=c1c(Cl)c(O)c2cccc3c4ccccc4n1c23 ?
VDR inhibitor: inconclusive

How did CN(CC1COc2ccccc2O1)C(=O)c1cc(COc2c(F)cccc2F)on1 (centres undefined) do in these assays?
VDR inhibitor: -18%

How did CCC(C)(C)NC(=O)C(OC(=O)c1ccco1)c1ccccc1F (centres undefined) do in these assays?
VDR inhibitor: 15%

Results for O=S(=O)(NCCc1csc(-c2ccc(F)cc2)n1)c1ccc(F)cc1F ?
VDR inhibitor: 3%

Results for Cc1cc(C)c(OCC(=O)OCC(=O)N2c3ccccc3CC2C)c(C)c1 (centres undefined) ?
VDR inhibitor: -2%

How did CCCNc1nc(C)cc(-c2cc(-c3ccccc3)on2)n1 do in these assays?
VDR inhibitor: 6%

How did COC(=O)Nc1ccc(S(=O)(=O)Nc2ccccc2F)cc1 do in these assays?
VDR inhibitor: -9%

What do the screens show for `Cc1ccc2nc(N3CCC(C(=O)N4CCN(c5cccc(C)c5C)CC4)CC3)[nH]c2c1`?
VDR inhibitor: 4%

How did S=c1nc(-c2ccccc2)n(CCCN2CCOCC2)c2c1CCCC2 do in these assays?
VDR inhibitor: 7%

How did CC(=O)N1CCN=C1SCc1cccc(F)c1 do in these assays?
VDR inhibitor: 8%

How did Cc1ccc(C(C(=O)NC2CCCCC2)N(Cc2ccco2)C(=O)Cc2c[nH]c3ccccc23)o1 (centres undefined) do in these assays?
VDR inhibitor: -13%

What do the screens show for `COc1ccc(-c2nc(CSCC(=O)NCc3ccc4c(c3)OCO4)c(C)o2)cc1`?
VDR inhibitor: -10%

How did FC(F)(F)c1cccc(NC(=S)N2CCN(c3cccc(C(F)(F)F)c3)CC2)c1 do in these assays?
VDR inhibitor: -1%

Results for CC(=O)CSc1nc(N)c(C#N)c(-c2cccs2)c1C#N ?
VDR inhibitor: 12%

How did COc1ccc(CNC(=O)CN(Cc2ccc(Cl)cc2)S(=O)(=O)c2ccccc2)cc1 do in these assays?
VDR inhibitor: -3%

What do the screens show for `O=C(NNC(=S)NC1CCCCC1)c1sc2ccccc2c1Cl`?
VDR inhibitor: -20%

Results for O=C(Cc1ccccc1)Nc1nnc(-c2cccc([N+](=O)[O-])c2)s1 ?
VDR inhibitor: -20%

Of the compounds above, 10 contain a halogen.
How did Cc1nn(C(=O)COc2ccc(Cl)cc2)c(C)c1Sc1ccccc1 do in these assays?
VDR inhibitor: 17%

Results for O=c1c(Cl)c(O)c2cccc3c4ccccc4n1c23 ?
VDR inhibitor: inconclusive

How did CN(CC1COc2ccccc2O1)C(=O)c1cc(COc2c(F)cccc2F)on1 (centres undefined) do in these assays?
VDR inhibitor: -18%

How did CCC(C)(C)NC(=O)C(OC(=O)c1ccco1)c1ccccc1F (centres undefined) do in these assays?
VDR inhibitor: 15%

Results for O=S(=O)(NCCc1csc(-c2ccc(F)cc2)n1)c1ccc(F)cc1F ?
VDR inhibitor: 3%

How did COC(=O)Nc1ccc(S(=O)(=O)Nc2ccccc2F)cc1 do in these assays?
VDR inhibitor: -9%

How did CC(=O)N1CCN=C1SCc1cccc(F)c1 do in these assays?
VDR inhibitor: 8%

How did FC(F)(F)c1cccc(NC(=S)N2CCN(c3cccc(C(F)(F)F)c3)CC2)c1 do in these assays?
VDR inhibitor: -1%

How did COc1ccc(CNC(=O)CN(Cc2ccc(Cl)cc2)S(=O)(=O)c2ccccc2)cc1 do in these assays?
VDR inhibitor: -3%

What do the screens show for `O=C(NNC(=S)NC1CCCCC1)c1sc2ccccc2c1Cl`?
VDR inhibitor: -20%

(continued)
How did Fc1ccc(-c2onc3ccc(C4OCCO4)cc23)cc1 do in these assays?
VDR inhibitor: 15%

What do the screens show for `CCNc1ccc(S(=O)(=O)N2CCCCC2)cn1`?
VDR inhibitor: -1%

Results for Nc1[nH]n(-c2c(Cl)cc(Cl)cc2Cl)c(=O)c1N=Nc1ccc(S(=O)(=O)Nc2ncccn2)cc1 ?
VDR inhibitor: -1%

What do the screens show for `COc1cccc(CNC(=O)c2cccc(S(=O)(=O)N3CCN(c4ccc(F)cc4)CC3)c2)c1`?
VDR inhibitor: 3%

What do the screens show for `COc1ccccc1C(=O)C1CCCN(C(=O)Nc2ccccc2F)C1` (centres undefined)?
VDR inhibitor: -13%

What do the screens show for `CCOC(=O)c1c(NC(=O)c2cc(Cl)ccc2Cl)sc2c1CCCC2`?
VDR inhibitor: -29%

How did Cc1ccc(CNC(=O)Cn2ccn(-c3ccc(F)cc3)c(=O)c2=O)cc1 do in these assays?
VDR inhibitor: 7%

Results for Cn1[nH]c(C(F)(F)F)c(C=Nc2ccc(Cl)cc2)c1=O ?
VDR inhibitor: -6%

How did CCCCC(=O)NNC(=S)NC(=O)c1cccc([N+](=O)[O-])c1 do in these assays?
VDR inhibitor: inconclusive

What do the screens show for `O/N=C(\c1ccccn1)C1CC1c1ccccc1` (centres undefined)?
VDR inhibitor: -4%

Results for CN(C)CCNC(=S)Nc1ccc(Cl)cc1 ?
VDR inhibitor: 10%

How did CCCCN1C(=O)c2[nH]nc(-c3ccccc3O)c2C1c1ccc(OCc2ccccc2)cc1 (centres undefined) do in these assays?
VDR inhibitor: 11%

How did COCC(=O)N(Cc1cc2cc(C)ccc2[nH]c1=O)c1cccc(C)c1C do in these assays?
VDR inhibitor: inconclusive

Results for CCN1CCN(C(=O)c2ccc(CNS(=O)(=O)c3cccc(OC)c3)cc2)CC1 ?
VDR inhibitor: -1%

Results for COc1cc(OC)nc(Oc2ccc(NC(C)=O)cc2)n1 ?
VDR inhibitor: -11%

How did Cc1cccc2cc(C#N)c(NCCNC(=S)NCCCN3CCOCC3)nc12 do in these assays?
VDR inhibitor: -9%

How did CC(C)N1C(=O)NC2(c3ccccc3)N(C)C(=O)N(C)C12c1ccccc1 (centres undefined) do in these assays?
VDR inhibitor: 1%

Results for Cc1ccc(Oc2c(C(F)(F)F)oc3c(CN4CCCCC4)c(O)ccc3c2=O)cc1 ?
VDR inhibitor: -4%

How did CN(C)c1ccc(C2CC(c3cccc(NS(C)(=O)=O)c3)=NN2C(=O)c2ccccc2)cc1 (centres undefined) do in these assays?
VDR inhibitor: 5%

Results for Cc1c(Cl)cccc1-n1c(SCC(=O)NCc2ccccc2)nc2n[nH]c(C)c2c1=N ?
VDR inhibitor: 13%

How did CCSC1=NCCN1S(=O)(=O)c1ccc(Cl)cc1 do in these assays?
VDR inhibitor: -22%

Results for O=C(NC(c1cccnc1)C(F)(F)F)c1cc(COc2ccc3c(c2)CCCC3)on1 (centres undefined) ?
VDR inhibitor: 4%

Results for O=C(/C=C/c1ccccc1Cl)Nc1ccccc1 ?
VDR inhibitor: 11%

What do the screens show for `CSc1ccc(/C=N/NC(=O)CN2CCN(Cc3ccccc3Cl)CC2)cc1`?
VDR inhibitor: -6%

How did Cc1ccc(C(=O)Nc2ccc3c(c2)OCO3)o1 do in these assays?
VDR inhibitor: -5%

How did Cc1ccccc1CN1C[C@@H]2C[C@@H](c3cn[nH]c3-c3ccccc3)N3CCC[C@@]23C1=O do in these assays?
VDR inhibitor: -2%

How did N#Cc1cc(NCC2CCCO2)c([N+](=O)[O-])cc1C#N (centres undefined) do in these assays?
VDR inhibitor: 5%

Results for Cc1ccc(C)c(S(=O)(=O)NCc2ccc(C(=O)N3CCN(c4ccccc4)CC3)cc2)c1 ?
VDR inhibitor: 4%

Results for Cc1cccc(N2CCN(C(=O)CS(=O)(=O)c3cccc4nsnc34)CC2C)c1 (centres undefined) ?
VDR inhibitor: -2%

Results for Cc1cc(NC(=O)C2C3C(=O)N(Cc4ccc(Cl)cc4)C(C(=O)NC4CCCCC4)C34C=CC2(C)O4)no1 (centres undefined) ?
VDR inhibitor: -1%

What do the screens show for `COCCCNC(=O)c1c(N)n(-c2ccccc2)c2nc3ccccc3nc12`?
VDR inhibitor: -8%

Results for CCCc1nc2ccccc2c(=O)n1N ?
VDR inhibitor: -4%

How did CCCCOC(=O)Nc1ccc(S(=O)(=O)Nc2ncccn2)cc1 do in these assays?
VDR inhibitor: -6%

What do the screens show for `COc1ccc(NC(=O)CCCn2c(=O)c3sccc3n(Cc3ccccc3)c2=O)cc1`?
VDR inhibitor: -22%

What do the screens show for `Cc1nnc(SCC(=O)NC2CCCCCC2)n1C(C)C`?
VDR inhibitor: 10%

Results for CCN(CC)CCn1c2ccccc2c2cnc(N=CN(C)C)c(C#N)c21 ?
VDR inhibitor: 5%

What do the screens show for `CC(NC(=O)CN(C)Cc1cccc(Cl)c1)c1ccccc1` (centres undefined)?
VDR inhibitor: -1%

What do the screens show for `CCc1cccc(C)c1NC(=O)CN1CCCN(Cc2ccc(C)cc2)S1(=O)=O`?
VDR inhibitor: -1%

How did O=C(c1ccco1)N1CCN(c2cc(=O)n(-c3ccc(Cl)cc3)c(=O)[nH]2)CC1 do in these assays?
VDR inhibitor: -16%

Results for CCOC(=O)C1=C(C)N=c2s/c(=C\c3ccc(OCC(=O)O)cc3)c(=O)n2C1c1ccc(OC(C)C)cc1 (centres undefined) ?
VDR inhibitor: 50µM*

Results for C=C1C(=O)C23C(O)C1CCC2[C@]12COC3(O)C(O)C1C(C)(C)CC[C@H]2O (some centres undefined) ?
VDR inhibitor: 14µM*

What do the screens show for `CN(Cc1ccccc1)C(=O)CCS(=O)(=O)c1cc(Br)cc2c1N(C(=O)C1CC1)CC2`?
VDR inhibitor: -9%

How did COc1ccccc1-c1noc(-c2ccc(N3CCOCC3)c([N+](=O)[O-])c2)n1 do in these assays?
VDR inhibitor: 3%

What do the screens show for `COc1cc(CNC(=O)C2CCC(=O)N(C3CCCCCC3)C2)cc(OC)c1` (centres undefined)?
VDR inhibitor: 10%

What do the screens show for `CCn1c(=O)c(C(=O)CN(C)Cc2ccc(F)cc2)c(N)n(Cc2ccccc2)c1=O`?
VDR inhibitor: -13%

How did O=C(O)c1c[nH]c2ccc(S(=O)(=O)N3CCOCC3)cc12 do in these assays?
VDR inhibitor: 2%

What do the screens show for `OC[C@H]1O[C@@H](n2cnc3c(NCc4ccco4)ncnc32)[C@H](O)[C@@H]1O`?
VDR inhibitor: 8%

Results for O=C(CCN1C(=O)C2CCCCC2C1=O)N1CCN(S(=O)(=O)c2c(F)cccc2F)CC1 (centres undefined) ?
VDR inhibitor: -6%

What do the screens show for `CCc1ccc([C@@H]2C[C@H]3CN(Cc4ccccc4OC)C(=O)[C@]34CCCN24)cc1`?
VDR inhibitor: 8%

How did Cc1ccc(Cl)c(OC(=O)c2nn(C(C)C)c(=O)c3ccccc23)c1 do in these assays?
VDR inhibitor: 5%

Results for Cc1ccc(NC(=O)N(Cc2c[nH]c3ccccc23)C2CCCCCC2)cc1C ?
VDR inhibitor: -17%

Results for COc1ccccc1CN1CCNC(=O)C1CC(=O)NCc1c(C)n[nH]c1C (centres undefined) ?
VDR inhibitor: 2%

How did Cc1cc(=O)oc2cc(OC(C)C(=O)NCC3CCCO3)ccc12 (centres undefined) do in these assays?
VDR inhibitor: -8%

What do the screens show for `COC(=O)c1nc2n(n1)C(c1ccc(OC)c(OC)c1OC)C1=C(CCCC1=O)N2` (centres undefined)?
VDR inhibitor: 3%

How did COc1ccc(-c2cn[nH]c2-c2ccc(O)cc2O)cc1OC do in these assays?
VDR inhibitor: -15%

What do the screens show for `CC(CCc1ccccc1)NC(=O)C1CCN(C(=O)c2sccc2-n2cccc2)CC1` (centres undefined)?
VDR inhibitor: -2%

Results for O=C(Cn1cc2c(n1)CCCC2)NCCc1ccccc1 ?
VDR inhibitor: 0%

Results for COc1ccc(NC2CCCN(C(=O)CCCN3CCCCC3=O)C2)cc1 (centres undefined) ?
VDR inhibitor: 9%

What do the screens show for `CC1(C)OC(=O)C(C(c2ccccc2)C(C#N)C(N)=O)=C(O)O1` (centres undefined)?
VDR inhibitor: -3%

How did Cc1cccc(C(=O)N2CCc3cc(CNC(=O)Cc4ccc(F)cc4)ccc32)c1 do in these assays?
VDR inhibitor: 7%

What do the screens show for `CCOC(=O)c1c(NC(=O)c2ccco2)n(C2CCCCC2)c2nc3ccccc3nc12`?
VDR inhibitor: inconclusive

Results for CCOC(=O)C(CC)(CC)C(=O)/C=C/c1ccc(Br)cc1 ?
VDR inhibitor: -28%

What do the screens show for `Cc1cc(C)cc(OCC(=O)OCc2cc([N+](=O)[O-])cc3c2OCOC3)c1`?
VDR inhibitor: -22%

What do the screens show for `CCn1c(NC(=O)C2CCCCC2)nc2ccccc21`?
VDR inhibitor: 9%

Results for CC(=O)Nc1c(-c2ccccc2)nc2ncccn12 ?
VDR inhibitor: -18%

What do the screens show for `O=C(Nc1ccccc1C(=O)OCc1cc(=O)n2c3c(sc2n1)CCCC3)c1ccc(F)cc1`?
VDR inhibitor: 7%

What do the screens show for `N#CCCN(Cc1cccnc1)C(=O)Nc1ccc(Cl)c(Cl)c1`?
VDR inhibitor: -5%

How did COc1ccc(-c2csc(N(CCCN(C)C)C(=O)c3ccccc3Cl)n2)cc1 do in these assays?
VDR inhibitor: 6%

Results for Cc1[nH]n(-c2ccc([N+](=O)[O-])cc2)c(=O)c1C=NCCc1ccc(S(N)(=O)=O)cc1 ?
VDR inhibitor: 16%

These rows are one share of the data. The share of hits here may be higher or lower than overall.
